# High-throughput results from PubChem.
# VDR inhibitor: inhibitors of human vitamin D receptor; P11473; VDR-SRC2-3 peptide fluorescence polarization, 2 h; Potency, µM, for inactives: max response, negative = inhibition, hits mostly inhibitors; 0.93% of 400,000 active; AID 504847; active = well fitted inhibition curve with a large enough effect; inconclusive = small, poorly fitted or top-dose-only effect, or another doubt; inactive = no such curve, though single readings can be large or run the other way; note: series mostly up to about 120 µM
# Target sequence (P11473 whole entry, looked up): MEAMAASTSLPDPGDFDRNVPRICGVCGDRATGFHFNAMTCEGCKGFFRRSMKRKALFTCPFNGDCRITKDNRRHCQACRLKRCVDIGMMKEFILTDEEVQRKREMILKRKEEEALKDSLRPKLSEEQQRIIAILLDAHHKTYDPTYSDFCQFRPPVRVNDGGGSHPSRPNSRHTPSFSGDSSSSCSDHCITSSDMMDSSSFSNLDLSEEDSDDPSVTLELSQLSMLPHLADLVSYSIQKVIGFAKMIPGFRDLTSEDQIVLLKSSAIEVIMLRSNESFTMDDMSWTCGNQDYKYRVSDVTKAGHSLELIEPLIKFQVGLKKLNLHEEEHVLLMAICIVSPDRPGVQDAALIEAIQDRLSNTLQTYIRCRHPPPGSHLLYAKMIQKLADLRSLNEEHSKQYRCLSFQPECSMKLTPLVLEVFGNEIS
#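 Fluorescence polarization assay measuring small-molecule disruption of VDR binding to the coregulator peptide SRC2-3. Compounds were pin-transferred (23 nl) into the reagent mix and incubated 2 h at room temperature before reading.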
# Active calls of the source: *; ? = inconclusive; & = joins results of further samples. % is set by controls: 0 for no effect and ±100 for the full control effect; potency is the fitted concentration of half-maximal effect. A portion of the library; count on the stated rates, not on these rows.
smiles | VDR inhibitor
CC(=O)c1ccccc1OCC(O)Cn1c(CO)nc2ccccc21 (stereo not drawn) | -3.1%
COc1cc(NC(=O)COC(=O)c2[nH]c(C)c(C(C)=O)c2C)cc(OC)c1 | -2.9%
O=C(CSc1nnc(-c2ccc(S(=O)(=O)N3CCCC3)cc2)o1)NCc1ccco1 | -2.2%
Cc1cc(NS(=O)(=O)c2ccc(NC(=O)c3ccco3)cc2)no1 | 8.8%
CCN1C(=O)C(CC(=O)Nc2ccccc2)S/C1=N\c1ccccn1 (stereo not drawn) | -5.4%
N#Cc1ccc(/C=N/NC(=O)c2cccc(S(=O)(=O)N3CCOCC3)c2)cc1 | 9.5%
CC1Cc2ccccc2N1C(=O)CSc1nnnn1-c1ccc2c(c1)OCCO2 (stereo not drawn) | 12.9%
Cc1ccc(C2=NOC(C)(c3nnc(-c4ccc(F)cc4)o3)C2)cc1 (stereo not drawn) | 1.0%
N#Cc1nc(Cc2ccccc2)oc1NCCCn1ccnc1 | -0.5%
O=C(O)c1ccccc1-c1ccccc1C(=O)Nc1ccc2c(c1)C(=O)c1ccccc1-2 | 0.2%
CC1(C)CC(=O)C(CC(=O)NC2CCCc3ccccc32)C(=O)C1 (stereo not drawn) | -20.8%
CC1CCN(C(=O)CNC(=O)c2ccc(Br)o2)CC1 | -15.1%
Cc1cc(-c2ccccc2)nc(N(C)N)c1S(C)(=O)=O | -2.4%
Cc1nc(-c2ccc(NC(=O)c3ccccc3)cc2)cs1 | -10.1%
O=C(COc1ccc(-c2ccccc2)cc1)N/N=C/c1ccccc1Br | 11.3%
Cc1ccc(C)c(S(=O)(=O)NCc2ccc(C(=O)N3CCC(Cc4ccccc4)CC3)cc2)c1 | -3.5%
COc1ccc(OC)c(C2(O)CSC(=Nc3cccnc3)N2Cc2ccco2)c1 (stereo not drawn) | -28.3%
CC(=O)Nc1ccc(S(=O)(=O)N(C)Cc2ccccc2)cc1 | -7.7%
Nc1cccc(N=[N+]([O-])c2cccc(N)c2)c1 | 10.3%
CN(C)/C=C/C(=O)c1ccc(OCCN(C)c2ccccn2)cc1 | -11.0%
COc1ccccc1CNC(=O)COCc1cc(-c2cccs2)on1 | 1.3%
COC(=O)c1cc(S(=O)(=O)NCC2CCN(Cc3cccc(Cl)c3)CC2)c[nH]1 | 7.5%
O=C(Nc1nnc(C2CC2)s1)c1cccnc1Oc1ccc(Cl)cc1 | -6.6%
COc1ccccc1-c1cc(-n2ccnc2)ncn1 | -15.6%
Cc1ccccc1NS(=O)(=O)c1ccc(C(=O)NCCCN2CCCC2=O)cc1 | -5.4%
O=c1[nH]c(CSc2nnc3ccccn23)nc2ccccc12 | 4.1%
COc1cc2c(cc1NC(=S)NC(=O)/C=C/c1ccco1)oc1ccccc12 | -2.4%
COc1ccc(-n2c(COc3ccccc3)n[nH]c2=S)cc1 | 0.2%
CC(C)c1nc2cc(C(=O)NC(c3cccnc3)C(F)(F)F)ccc2o1 (stereo not drawn) | -8.4%
COc1cccc([C@@H]2Oc3ccc(Br)cc3C(=O)[C@H]2OC(=O)N[C@H](C)C2CCCCC2)c1 | -1.9%
CC(=O)Nc1cccc(/C(C)=N/NC(=O)c2ccc(O)cc2)c1 | 27.8%
CCCCN(C)CCNC(=O)c1ccc2c(c1)NC(=O)CN2 | -8.8%
CCN(CC(=O)NC)S(=O)(=O)c1ccc(C)cc1 | 8.4%
Cc1cccc(NC(=O)CCC(=O)OCc2ccc(Br)cc2)c1 | -13.7%
Cc1cc(S(=O)(=O)Nc2ccc(N(C)C)cc2)c(C)s1 | 0.1%
Cn1cnnc1SCc1ccc(C(=O)O)cc1 | 4.4%
N#Cc1cc(-c2ccc(Cl)cc2)cnc1Sc1ccc(F)cc1 | -4.9%
COCCCNC(=O)Cc1c(C)c2cc3c(cc2oc1=O)OC(C)(C)CC3 | -9.7%
CS(=O)(=O)N(CC(=O)NC1CCCC1)c1cccc(F)c1 | -3.5%
COc1ccc(C(=O)N[C@H](C(=O)NCCCn2nc(C)cc2C)C(C)C)cc1 | -0.8%
O=C(COC(=O)c1ccccc1O)Nc1cc([N+](=O)[O-])ccc1Cl | 5.0%
Cc1cccc(C(=O)NC2CCN(S(=O)(=O)c3cccc(F)c3)CC2)c1 | -3.6%
Cn1nc(CC(=O)Nc2ccc(N3CCN(C(=O)OC(C)(C)C)CC3)cc2)c2ccccc2c1=O | -11.4%
O=C(Cc1cccc2ccccc12)NN1C(=O)CSC1=S | 9.4%
O=C(NCC1CCCCC1)c1ccc(Cl)c(S(=O)(=O)N2CCOCC2)c1 | -9.5%
Cc1cnc(C(=O)NNC(=O)c2ccc(Br)cc2)cn1 | 2.2%
CN(C)S(=O)(=O)c1cccc(NC(=O)COC(=O)c2cc(-c3cccc(Br)c3)nc3ccccc23)c1 | 6.3%
CSc1nc(C)cc(Oc2ccc(=O)[nH]n2)n1 | 7.7%
O=C(NCc1nc(-c2ccccc2)cs1)c1ccccc1 | -4.5%
O=C(NC1CCCCC1)c1nc2c(nnn2Cc2ccccc2Cl)c(=O)[nH]1 | 6.6%
CCOc1ccc(S(=O)(=O)NCCC(=O)OCC(=O)Nc2cc(C)on2)cc1 | 10.2%
CN(CC(=O)Nc1ccc(Cl)cc1)C(=O)c1cccc(S(=O)(=O)N2CCN(Cc3ccccc3)CC2)c1 | 3.7%
CCCNS(=O)(=O)c1ccc(OCC(=O)N2CCOCC2)cc1 | 3.8%
O=C1C[C@@H](c2ccc(O)cc2)Oc2cc(O)cc(O)c21 | 0.0%&2.4%
O=C1C(=O)N(c2cccc(Cl)c2)C(c2ccccc2[N+](=O)[O-])/C1=C(\O)c1ccccc1 (stereo not drawn) | -19.2%
Cc1ccc(NC(=O)Cn2c(=O)n(Cc3nc(-c4ccccc4)no3)c(=O)c3cc4c(cc32)OCO4)cc1F | -4.9%
CN(C)S(=O)(=O)n1cc(/C=C(\NC(=O)c2ccccc2Cl)C(=O)NCCCN2CCOCC2)c2ccccc21 | -5.1%
CC(=O)c1ccc(S(=O)(=O)NCc2ccc(C(=O)NCC(c3ccccc3)N(C)C)cc2)cc1 (stereo not drawn) | -19.8%
CC(C)C(Cl)=NOC(=O)Nc1ccc(S(N)(=O)=O)cc1 | ?
Cc1nn(Cc2c(Cl)cccc2Cl)c(C)c1NC(=O)c1cc(C(C)C)on1 | -6.5%

# The results go on:
smiles | VDR inhibitor
O=C1C=C(c2ccc(O)cc2)C[C@@H](c2ccc3c(c2)OCO3)C1 | -12.3%
COC(=O)c1cccc(NC(=O)c2cccc(OC)c2)c1 | 10.2%
CCOC(=O)c1cc2[nH]c3ccccc3c2[n+](-c2ccc([N+](=O)[O-])cc2)c1C | -11.5%
COCCNc1nnc(SCC(=O)NC(=O)c2ccccc2)s1 | 29.7%
CCc1ccc(NC(=O)CSc2nc3ccccc3c(=O)n2CCC(=O)NC2CCCCC2)cc1 | 8.4%
COc1ccccc1CCC(=O)OCC(=O)N1CCN(S(=O)(=O)c2ccc(C)cc2C)CC1 | 15.2%
CCOc1ccccc1NC(=O)c1nc(S(=O)(=O)Cc2ccccc2)ncc1Cl | 11.2µM*
C/C(=N\NC(=O)c1sccc1C)c1ccncc1 | 5.7%
NC(=O)C1CCN(C(=O)C2CCC(=O)N(C3CCCCCC3)C2)CC1 (stereo not drawn) | 5.0%
O=C(NCCc1ccccc1)C1CCN(C(=O)c2sccc2-n2cccc2)CC1 | 6.8%
COc1ccc(OC)c(S(=O)(=O)N(C)CC(=O)Nc2ccc3c(c2)OCCO3)c1 | -1.2%
O=C(Nc1ccccc1F)NC1CCN(Cc2nnnn2Cc2ccc(F)cc2)CC1 | -2.1%
COc1cc(CCC(=O)NCc2ccc(S(N)(=O)=O)cc2)cc(OC)c1OC | -4.3%
CCc1ccccc1NC(=O)Cn1nnc(C(=O)OC)c1C(=O)OC | -5.9%
COc1ccc(C)cc1NC(=O)NCc1ccc(F)cc1 | 6.6%
CCN(CC)S(=O)(=O)c1ccc(S(=O)(=O)N(CC(=O)Nc2ccccc2)CC2CCCO2)cc1 (stereo not drawn) | 3.6%
CN(C)C(=O)Cn1cnc2c(cnn2-c2ccccc2Cl)c1=O | -0.3%
O=C(CSc1nccn1-c1cccc(Cl)c1)Nc1ccc2c(c1)OCCO2 | -22.2%
COC(=O)Nc1ncc(CN2CCC(c3ccccc3)CC2)s1 | 11.8%
Cc1cc2oc(C(=O)Nc3cccc(-c4nc5ccccc5o4)c3)c(C)c2cc1Cl | 11.9%
O=C1CC(c2ccccc2)CC(O)=C1C=NCCN1CCN(C(=O)Nc2ccccc2)CC1 (stereo not drawn) | 9.5%
CCc1cccc(NC(=O)CCc2nc3cccnc3n2Cc2ccc(OC)cc2)c1 | -6.2%
N#Cc1c(N)sc(=S)c2c1CCCCC2 | ?
CC(C)(C)C(=O)Nc1sc2c(c1C#N)CCN(Cc1ccccc1)C2 | -14.6%

# Laid out differently: 4 of the compounds above.
Cc1nc(-c2ccc(NC(=O)c3ccccc3)cc2)cs1
- VDR inhibitor: -10.1%
O=C(COc1ccc(-c2ccccc2)cc1)N/N=C/c1ccccc1Br
- VDR inhibitor: 11.3%
Cc1ccc(C)c(S(=O)(=O)NCc2ccc(C(=O)N3CCC(Cc4ccccc4)CC3)cc2)c1
- VDR inhibitor: -3.5%
COc1ccc(OC)c(C2(O)CSC(=Nc3cccnc3)N2Cc2ccco2)c1 (stereo not drawn)
- VDR inhibitor: -28.3%

# Other results.
smiles | VDR inhibitor
CCOc1cc(C(=O)Nc2ccccc2N2CCOCC2)ccc1OCC(=O)N1CCCCC1 | 10.4%
COc1ccc(CCNC(=O)COc2ccc(S(=O)(=O)N3CCCC3)cc2)cc1 | -2.9%
CCC(C)(C(=O)NC1CCCC1)N(Cc1cccs1)C(=O)c1ccc2c(c1)OCO2 (stereo not drawn) | -24.4%
COc1ccc(S(=O)(=O)N2CCN=C2SCc2cccnc2)cc1 | 6.2%
N#CCSc1nccc(/C=C/c2ccccc2)n1 | -8.0%
Cc1noc(C)c1C(=O)N1CCN(CCc2ccccc2)CC1 | 17.5%
Cc1cccc(CN2CCC(C(=O)Nc3ccc(-n4nc(C)cc4C)cc3)CC2)n1 | -4.5%
O=C(Cc1ccccc1)NNC(=O)Nc1cccc(Cl)c1 | 0.0%
COc1ccc(NC(=O)O/N=C/c2c(C)nn(C(C)(C)C)c2C)cc1 | -6.4%
Cc1coc(C)c1C(=O)CC1(O)C(=O)Nc2cc(Cl)cc(Cl)c21 (stereo not drawn) | -1.1%
O=C(O)c1ccc(C=NNC(=O)c2cccc3ccccc23)cc1 | -8.6%
CCN(C(=O)CCS(=O)(=O)c1cccc2nonc12)c1ccc(C)c(C)c1 | 7.1%
CCN1C(=O)C2(SC(NC(C)=O)=NN2C(C)=O)c2cc(C)ccc21 (stereo not drawn) | -0.4%
CC1=CC(=O)OC1Cc1ccc2ccccc2n1 (stereo not drawn) | -4.2%
Cc1ccc(N2CCn3c2nc2c3c(=O)n(CCCc3ccccc3)c(=O)n2C)cc1C | 5.5%
CCOC(=O)c1c(C)oc2ccc(OCc3cc(C(=O)OC)oc3C)cc12 | -19.2%
COc1cccc(-c2nnc(-c3cc4cc(Cl)ccc4oc3=O)o2)c1 | -13.9%
COc1ccc(C)cc1NC(=O)CSc1nc2scc(C)c2c(=O)[nH]1 | -6.7%
O=C(CN1C(=O)c2ccccc2C1=O)NCC(=O)Nc1ccccc1 | -15.4%
COc1ccc(-c2noc(CSc3nnc(-c4ccncc4)n3-c3ccc(OC)cc3)n2)cc1 | 14.9%
[O-][n+]1c2cc(C(F)(F)F)ccc2c2n1CCN=C2c1ccc(Cl)cc1 | 29.3%
COc1cc(NC(=O)c2cc(OC)c(OC)c(OC)c2)c(OC)cc1NC(=O)CN1CCCCC1 | -0.6%
Cc1nc(C)c(C(=O)N/N=C/c2cc(Br)ccc2O)s1 | -14.2%
Cc1ccc2nc(Cl)c3cc(C(=O)N(C)C4CCCCC4)sc3c2c1 | -7.2%
CCN(c1ccccc1)S(=O)(=O)c1ccc2c(c1)CCCN2C(C)=O | -5.5%
COc1cccc(N(C(=O)CNC(=O)c2ccco2)C(C(=O)NC2CCCCC2)c2ccncc2)c1 (stereo not drawn) | 13.6%
COc1ccc(-c2noc(-c3ccc(NC4CCCCC4)c([N+](=O)[O-])c3)n2)cc1 | 5.6%
O=C(CSc1nnc2scc(-c3ccccc3)n12)Nc1nsc(-c2ccc(Cl)cc2)n1 | 11.6%
CCOc1ccccc1NC(=O)Nc1cccc(NC(C)=O)c1 | 19.3%
C/C(CCc1ccccc1)=N\NC(=O)COc1ccccc1C | -18.5%
Cn1c(C(=O)c2ccccc2)nc2ccccc21 | 0.0%
O=C(N/N=C/c1cn(-c2ccccc2)nc1-c1ccc2c(c1)OCCO2)c1ccncc1 | 4.9%
O=C(NCCSCc1ccccc1Cl)C1CCN(S(=O)(=O)Cc2ccccc2)CC1 | 5.5%
CCC(Oc1ccccc1)C(=O)Nc1ccc(C)c(S(=O)(=O)N2CCOCC2)c1 (stereo not drawn) | -9.4%
COc1cccc(N2CC(=O)N(NC(=O)CSc3nc(C)cc(C)c3C#N)CC2=O)c1 | 4.1%
Cn1c(=O)n(C)c2cc(C(=O)O)ccc21 | -4.0%
O=C(Nc1ccccc1N1CCCCC1)c1ccc(OC(F)F)cc1 | 7.2%
O=c1oc2ccccc2n1CCCOc1ccccc1Cl | 4.4%
CC(=O)Nc1ccc(SCc2c(C)noc2C)cc1 | -12.5%
CS(=O)(=O)N(Cc1nc(-c2ccc(F)cc2)no1)c1ccccc1Cl | -20.8%
CCOC(=O)C1CCN(C(=O)Cn2ncc3c4ccccc4n(C)c3c2=O)CC1 | -4.3%
